Ecoli rRNA inh – selective bacterial rRNA inhibition in E. coli; GFP signal change (wild-type ribosome), % (test concentration not listed); AID 720706; hit rate 1.6% among 350,000; E. coli WT GFP vs humanized-ribosome RFP mutants, fluorescence, 24 h; hits give low values; DMSO median 0, no signal -100;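 active = significant combined selectivity score with lowered wild-type GFP, culture density cut under 30%, mutant RFP and density less affected; inactive = any of these conditions unmet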; note: one replicate is shown; some compounds called inactive have numbers as strong as hits
Ecoli rRNA inh OD600 – second read-out of Ecoli rRNA inh, no call of its own (marks repeat the call); OD600 change, %; measured here: OD600 growth;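 optical density of the mix in the first replicate; 0 = DMSO median and -100 = no signal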
Ecoli rRNA inh RFP – also measured in Ecoli rRNA inh; calls as there; RFP signal change, %; measured here: RFP humanized mutant strains;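 first replicate; 0 = DMSO median and -100 = no signal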
Starred values were filed as active, the others as inactive. This is a subset; rates above refer to the full screens.

Screening C[C@H]1CN([C@@H](C)CO)S(=O)(=O)c2ccc(C#CC3(O)CCCC3)cc2O[C@@H]1CN(C)C(=O)c1ccccc1 returned Ecoli rRNA inh -2.7, Ecoli rRNA inh OD600 -9.5 and Ecoli rRNA inh RFP -0.1.
CO[C@@H]1CN(C)C(=O)c2ccc(NC(=O)c3ccccc3F)cc2OC[C@@H](C)N(CC2CC2)C[C@@H]1C was read as Ecoli rRNA inh -0.4, Ecoli rRNA inh OD600 -1.3 and Ecoli rRNA inh RFP -1.1.
`COCC(=O)Nc1ccc2c(c1)[C@@H]1C[C@@H](CC(=O)NCc3ccccc3)O[C@H](CO)[C@@H]1O2` gave Ecoli rRNA inh 1.8, Ecoli rRNA inh OD600 1.3 and Ecoli rRNA inh RFP 0.0.
Screening COc1ccc(S(=O)(=O)Nc2ccc3c(c2)CC(=O)N([C@H](C)CO)C[C@@H](C)[C@@H](CN(C)Cc2ccc(C(=O)O)cc2)O3)cc1 returned Ecoli rRNA inh 0.7, Ecoli rRNA inh OD600 -1.5 and Ecoli rRNA inh RFP 0.3.
Screening CN(C)C(=O)c1ccc(-c2ccc(C3[C@@H]4CN(C(=O)Nc5ccc(Cl)cc5)C[C@H]3N4)cc2)cc1 (stereo partly specified) returned Ecoli rRNA inh -8.5, Ecoli rRNA inh OD600 -9.1 and Ecoli rRNA inh RFP -0.7.
`C[C@@H]1CN([C@@H](C)CO)C(=O)Cc2cc(NS(=O)(=O)c3cn(C)cn3)ccc2O[C@@H]1CN(C)Cc1ccc(Cl)c(Cl)c1` gave Ecoli rRNA inh 0.3, Ecoli rRNA inh OD600 0.5 and Ecoli rRNA inh RFP -0.3.
C[C@@H](NC(=O)[C@H]1[C@H](CO)[C@H]2Cn3c(ccc(-c4ccncc4)c3=O)[C@@H]1N2C)c1ccccc1 was read as Ecoli rRNA inh 0.6, Ecoli rRNA inh OD600 4.9 and Ecoli rRNA inh RFP -0.6.
COc1ccc(S(=O)(=O)Nc2ccc3c(c2)CC(=O)N([C@@H](C)CO)C[C@@H](C)[C@@H](CN(C)C(=O)Nc2c(C)noc2C)O3)cc1 was read as Ecoli rRNA inh 1.9, Ecoli rRNA inh OD600 7.6 and Ecoli rRNA inh RFP 0.8.
O=C(C[C@@H]1CC[C@@H]2[C@H](COC[C@H](O)CN2S(=O)(=O)c2ccccc2Cl)O1)NCc1ccccc1Cl was read as Ecoli rRNA inh -4.5, Ecoli rRNA inh OD600 -11.7 and Ecoli rRNA inh RFP -1.6.
C[C@H]1CN([C@@H](C)CO)C(=O)Cc2cc(NS(C)(=O)=O)ccc2O[C@@H]1CN(C)C(=O)Nc1cccc2ccccc12 was read as Ecoli rRNA inh 0.2, Ecoli rRNA inh OD600 -12.0 and Ecoli rRNA inh RFP 5.1.
`Cc1ccccc1-c1ccc([C@@H]2[C@H](CO)N3C(=O)CN(C(=O)c4cccnc4)C[C@@H]23)cc1` gave Ecoli rRNA inh -1.4, Ecoli rRNA inh OD600 9.8 and Ecoli rRNA inh RFP -3.5.
`Cc1cc(=O)c2c(N(C)C)cccc2[nH]1` gave Ecoli rRNA inh -1.5, Ecoli rRNA inh OD600 8.8 and Ecoli rRNA inh RFP -0.2.

Pulled by compound from the list above (four):
COc1ccc(S(=O)(=O)Nc2ccc3c(c2)CC(=O)N([C@@H](C)CO)C[C@@H](C)[C@@H](CN(C)C(=O)Nc2c(C)noc2C)O3)cc1 was read as Ecoli rRNA inh 1.9, Ecoli rRNA inh OD600 7.6 and Ecoli rRNA inh RFP 0.8.
`COCC(=O)Nc1ccc2c(c1)[C@@H]1C[C@@H](CC(=O)NCc3ccccc3)O[C@H](CO)[C@@H]1O2` gave Ecoli rRNA inh 1.8, Ecoli rRNA inh OD600 1.3 and Ecoli rRNA inh RFP 0.0.
O=C(C[C@@H]1CC[C@@H]2[C@H](COC[C@H](O)CN2S(=O)(=O)c2ccccc2Cl)O1)NCc1ccccc1Cl was read as Ecoli rRNA inh -4.5, Ecoli rRNA inh OD600 -11.7 and Ecoli rRNA inh RFP -1.6.
Screening CN(C)C(=O)c1ccc(-c2ccc(C3[C@@H]4CN(C(=O)Nc5ccc(Cl)cc5)C[C@H]3N4)cc2)cc1 (stereo partly specified) returned Ecoli rRNA inh -8.5, Ecoli rRNA inh OD600 -9.1 and Ecoli rRNA inh RFP -0.7.

The list goes on.
Screening C[C@H](CO)N1C[C@H](C)[C@H](CN(C)Cc2ccc3c(c2)OCO3)OCc2cnnn2CCCC1=O returned Ecoli rRNA inh -1.0, Ecoli rRNA inh OD600 0.3 and Ecoli rRNA inh RFP 1.3.
Screening CNC[C@@H]1Oc2ccc(NC(=O)Cn3cnnn3)cc2C(=O)N([C@@H](C)CO)C[C@H]1C returned Ecoli rRNA inh 2.5, Ecoli rRNA inh OD600 4.4 and Ecoli rRNA inh RFP -1.0.
Screening CC(C)NC(=O)N(C)C[C@@H]1OCCCC[C@@H](C)Oc2ccc(NS(=O)(=O)c3ccc(F)cc3)cc2C(=O)N([C@H](C)CO)C[C@H]1C returned Ecoli rRNA inh -4.1, Ecoli rRNA inh OD600 0.5 and Ecoli rRNA inh RFP 1.2.
Screening CCS(=O)(=O)NCC[C@@H]1CC[C@@H](NC(=O)Nc2cc(Cl)cc(Cl)c2)[C@@H](CO)O1 returned Ecoli rRNA inh -4.8, Ecoli rRNA inh OD600 -5.1 and Ecoli rRNA inh RFP 0.6.
Screening O=C(c1ccccn1)N1[C@@H](CO)[C@@H](c2ccccc2)C12CN(Cc1ccccc1F)C2 returned Ecoli rRNA inh 2.8, Ecoli rRNA inh OD600 22.5 and Ecoli rRNA inh RFP 1.6.
`Cc1cccc(CN2[C@H](COCc3ccccc3)C=CS2(=O)=O)c1` gave Ecoli rRNA inh -25.1, Ecoli rRNA inh OD600 -48.6 and Ecoli rRNA inh RFP -13.2.
For Cc1noc(C)c1S(=O)(=O)Nc1ccc2c(c1)C(=O)N([C@H](C)CO)C[C@H](C)[C@@H](CN(C)Cc1ccccc1)O2 the results were Ecoli rRNA inh 1.0, Ecoli rRNA inh OD600 14.2 and Ecoli rRNA inh RFP -1.4.
`CCNC(=O)C[C@H]1CC[C@@H]2[C@@H](COc3ccc(NC(=O)Nc4cccc(C)c4)cc3C(=O)N2C)O1` gave Ecoli rRNA inh -0.7, Ecoli rRNA inh OD600 -7.2 and Ecoli rRNA inh RFP 4.9.
Screening CN(C)C(=O)c1ccc(-c2ccc3c(c2)[C@H]2[C@H](CCN2C(=O)C2CCOCC2)[C@@H](CO)N3C)cc1 returned Ecoli rRNA inh 2.1, Ecoli rRNA inh OD600 6.9 and Ecoli rRNA inh RFP -4.4.
Screening C[C@@H]1CCCCO[C@@H](CN(C)C(=O)Cc2ccccc2)[C@@H](C)CN([C@H](C)CO)C(=O)c2cc(NS(=O)(=O)c3ccccc3)ccc2O1 returned Ecoli rRNA inh -3.1, Ecoli rRNA inh OD600 -4.8 and Ecoli rRNA inh RFP 1.4.
CCc1nnc(NC(=O)C(NS(=O)(=O)c2ccccc2)C(C)C)s1 (stereo unspecified) was read as Ecoli rRNA inh 12.6, Ecoli rRNA inh OD600 3.2 and Ecoli rRNA inh RFP 1.9.
For COCCNC(=O)C[C@H]1C[C@H]2c3cc(NC(=O)Nc4ccccc4F)ccc3O[C@H]2[C@@H](CO)O1 the results were Ecoli rRNA inh 0.8, Ecoli rRNA inh OD600 -3.2 and Ecoli rRNA inh RFP -2.9.
`CCCNC(=O)C[C@@H]1CC[C@H]2[C@@H](COC[C@@H](O)CN2C(=O)c2ccc(F)cc2)O1` gave Ecoli rRNA inh 2.2, Ecoli rRNA inh OD600 3.0 and Ecoli rRNA inh RFP -2.4.
Screening O=c1[nH][nH]c2c1C(c1cccc(C(F)(F)F)c1)OC(CCc1ccccc1)C2 (stereo unspecified) returned Ecoli rRNA inh -3.9, Ecoli rRNA inh OD600 -13.8 and Ecoli rRNA inh RFP -5.3.
Screening CCCCCCn1c(=O)n2n(c1=O)C[C@]1(OC(=O)NCc3ccco3)CN(S(=O)(=O)c3ccc(C)cc3)C[C@]1(O)C2 returned Ecoli rRNA inh -19.7, Ecoli rRNA inh OD600 -15.2 and Ecoli rRNA inh RFP -6.0.
Screening CC(=O)N(C)C[C@H]1Oc2cc(C#Cc3cccnc3)ccc2S(=O)(=O)N([C@@H](C)CO)C[C@@H]1C returned Ecoli rRNA inh -1.2, Ecoli rRNA inh OD600 4.0 and Ecoli rRNA inh RFP -1.4.
Cc1noc(C)c1S(=O)(=O)Nc1ccc2c(c1)C(=O)N([C@@H](C)CO)C[C@@H](C)[C@@H](CN(C)C(=O)Nc1ccccc1)OCCCC[C@@H](C)O2 was read as Ecoli rRNA inh -0.1, Ecoli rRNA inh OD600 -3.3 and Ecoli rRNA inh RFP -0.9.
`COc1ccc(CN(C)C[C@@H]2OCCCC[C@H](C)Oc3ccc(NC(=O)Nc4cccc5ccccc45)cc3C(=O)N([C@@H](C)CO)C[C@H]2C)cc1` gave Ecoli rRNA inh -1.2, Ecoli rRNA inh OD600 -0.6 and Ecoli rRNA inh RFP 8.8.
COc1ccc(NC(=O)N(C)C[C@H]2Oc3ccc(NC(=O)C4CCCCC4)cc3CC(=O)N([C@H](C)CO)C[C@@H]2C)cc1 was read as Ecoli rRNA inh -2.0, Ecoli rRNA inh OD600 -0.5 and Ecoli rRNA inh RFP -0.9.
For COc1ccc(NC(=O)Nc2ccc3c(c2)C(=O)N([C@H](C)CO)C[C@H](C)[C@@H](CN(C)S(=O)(=O)c2cccs2)OCCCC[C@@H](C)O3)cc1 the results were Ecoli rRNA inh 1.2, Ecoli rRNA inh OD600 1.1 and Ecoli rRNA inh RFP -1.5.
Screening CCC[C@H]1CN(c2ccc(OC)cc2)C(=O)[C@@H]1CC(=O)NC returned Ecoli rRNA inh 15.1, Ecoli rRNA inh OD600 3.2 and Ecoli rRNA inh RFP 2.5.
For CCCCCCN1CCN(C2CN(Cc3cn(Cc4cccc(Cl)c4)nn3)S(=O)(=O)C2)CC1 (stereo unspecified) the results were Ecoli rRNA inh -12.4, Ecoli rRNA inh OD600 -9.1 and Ecoli rRNA inh RFP 0.9.
For C[C@@H]1CN([C@@H](C)CO)S(=O)(=O)c2ccc(/C=C/c3ccccc3)cc2O[C@H]1CN(C)Cc1ccc(C(=O)O)cc1 the results were Ecoli rRNA inh -12.8, Ecoli rRNA inh OD600 -8.3 and Ecoli rRNA inh RFP 0.9.
Screening C[C@H](CO)N1C[C@H](C)[C@@H](CN(C)S(=O)(=O)c2cn(C)cn2)Oc2ccc(NC(=O)Nc3cccc4ccccc34)cc2C1=O returned Ecoli rRNA inh 2.0, Ecoli rRNA inh OD600 -3.8 and Ecoli rRNA inh RFP -0.9.
For Fc1cccc(CN2[C@@H]3CNC[C@H]2C3c2ccc(-c3ccccc3)cc2)c1 (stereo partly specified) the results were Ecoli rRNA inh -2.1, Ecoli rRNA inh OD600 -34.4 and Ecoli rRNA inh RFP 10.7.
C[C@@H]1CN([C@H](C)CO)C(=O)c2cccc(NC(=O)Nc3ccc(C(F)(F)F)cc3)c2O[C@H]1CN(C)C(=O)Nc1ccc2c(c1)OCO2 was read as Ecoli rRNA inh -3.8, Ecoli rRNA inh OD600 -2.3 and Ecoli rRNA inh RFP 0.9.
Screening Cc1ccc(-c2nc3c(Cl)cc(C(F)(F)F)cn3c2Cc2ccsc2)cc1 returned Ecoli rRNA inh -6.6, Ecoli rRNA inh OD600 -1.2 and Ecoli rRNA inh RFP -5.0.
`Cc1ccc(S(=O)(=O)Nc2cccc3c2O[C@@H](CN(C)Cc2ccc(C(F)(F)F)cc2)[C@@H](C)CN([C@@H](C)CO)C3=O)cc1` gave Ecoli rRNA inh -1.5, Ecoli rRNA inh OD600 0.6 and Ecoli rRNA inh RFP 0.6.
`CC(C)CC#Cc1ccc2c(c1)O[C@@H](CN(C)S(C)(=O)=O)[C@@H](C)CN([C@@H](C)CO)S2(=O)=O` gave Ecoli rRNA inh 1.9, Ecoli rRNA inh OD600 -6.9 and Ecoli rRNA inh RFP 0.7.
O=C(NCc1cccc(Cl)c1)C1Cc2c(-c3ccc(Cl)cc3)ccnc2O1 (stereo unspecified) was read as Ecoli rRNA inh -11.2, Ecoli rRNA inh OD600 12.6 and Ecoli rRNA inh RFP -2.4.
Screening CN(C)C(=O)C[C@@H]1C[C@H]2c3cc(NC(=O)NC4CCCCC4)ccc3O[C@H]2[C@H](CO)O1 returned Ecoli rRNA inh 1.1, Ecoli rRNA inh OD600 4.8 and Ecoli rRNA inh RFP -1.9.
COc1ccc(NC(=O)N(C)C[C@@H]2Oc3ccc(NC(=O)NC4CCCCC4)cc3CC(=O)N([C@@H](C)CO)C[C@@H]2C)cc1 was read as Ecoli rRNA inh 2.2, Ecoli rRNA inh OD600 1.7 and Ecoli rRNA inh RFP -1.8.
For CCCC#Cc1ccc2c(c1)O[C@@H](CN(C)C(=O)C1CC1)[C@@H](C)CN([C@H](C)CO)S2(=O)=O the results were Ecoli rRNA inh 4.0, Ecoli rRNA inh OD600 -1.5 and Ecoli rRNA inh RFP 1.0.
O=C(N[C@H]1CC[C@@H](CCNS(=O)(=O)c2ccccc2)O[C@H]1CO)c1cnccn1 was read as Ecoli rRNA inh 3.8, Ecoli rRNA inh OD600 -0.8 and Ecoli rRNA inh RFP -0.3.
Screening Cc1ccc(-c2ccccc2[C@H]2[C@@H](C#N)N(C(=O)Cc3cccnc3)[C@H]2CO)cc1 returned Ecoli rRNA inh 0.9, Ecoli rRNA inh OD600 9.5 and Ecoli rRNA inh RFP 6.2.
`CCCNC(=O)NC[C@H]1[C@@H](c2ccc(C3=CCCC3)cc2)[C@H](CO)N1C(=O)CC` gave Ecoli rRNA inh -2.1, Ecoli rRNA inh OD600 -4.5 and Ecoli rRNA inh RFP 2.5.
For N#C[C@@H]1[C@@H](c2ccc(C#Cc3cccc(F)c3)cc2)[C@@H](CO)N1C(=O)C1CCCC1 the results were Ecoli rRNA inh 1.3, Ecoli rRNA inh OD600 2.6 and Ecoli rRNA inh RFP -0.5.

High-throughput results deposited in PubChem BioAssay by Broad Institute.
